# Bioassay records from PubChem BioAssay.
# CDC25B-CDK2 inh: human CDC25B-CDK2/CyclinA binding inhibition. 94,000 tested, 0.72% active. z-score (test concentration not listed). HTRF CDC25B-CDK2/CyclinA binding, anti-His/anti-Flag; active compounds read high. P30305+P24941. AID 1259370;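 further: score is relative to mean and SD of negative controls; strong numbers were not always called active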
# TAR Tat displ: HIV-1 TAR-Tat binding disruption | 100,000 tested, 0.6% active | AID 1259389 | z-score (no concentration beside the values) | HIV-1 TAR RNA, Tat peptide displacement FRET; active compounds read high;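 further: score is relative to mean and SD of negative controls; some compounds called inactive have numbers as strong as hits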
# Starred values were filed as active, the others as inactive; . = no result given.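 How the source made its calls: active means z-score from 3 up in half or more of its runs; inactive means the rest.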 Rows are unselected, and some 0.97% of all compounds hit somewhere here.
SMILES,CDC25B-CDK2 inh,TAR Tat displ
O=C1CC(c2nc3ccccc3[nH]2)CN1c1ccccc1 (stereo not drawn),-1.4,0.63
Cc1ccc(Cc2nn[nH]n2)cc1C,-2.2,.
O=c1c2ccccc2n2c(-c3cc(Br)cs3)nnc2n1Cc1ccc(F)cc1,-1.8,0.74
N#CC(C#N)=CNCCN1CCN(C=C(C#N)C#N)CC1,0.21,.
Nc1cc(=O)[nH]n1C1CCN(c2ccccc2)CC1,0.27,1.8
CCOc1cc(S(=O)(=O)Nc2ccc(Cl)cn2)ccc1F,-1.2,0.15
O=C(c1nc2ccccc2nc1Cl)N1CCN(c2ncccn2)CC1,-0.54,0.99
Cn1c(=O)n(CC(=O)N2CCCC2)c(=O)c2cc(S(=O)(=O)Nc3ccc(Cl)cn3)ccc21,.,2.1
Cc1cc(Nc2ccc(Br)cc2F)n2nc(-c3ccco3)nc2n1,.,-4.2
COc1cc2cc(C(=O)N3CCN(c4cc(C)nc5ccccc45)CC3)c(=O)oc2cc1OC,-2.5,.
CCCN1C(=O)c2cc(C(=O)NCCc3cccs3)nn2CC1(C)C(=O)NC1CCCC1 (stereo not drawn),.,1.6
Cc1c(-c2ccnc(N)n2)cnn1-c1ccccc1,-0.26,.
CC1(O)Cc2[nH][nH]c(=O)c2C(c2cccnc2)C1C(=O)OCc1ccccc1 (stereo not drawn),-2.3,2.4
COc1ccc(C2=NN(S(=O)(=O)c3ccccc3)C(c3ccc(OC)c(OC)c3)C2)cc1OC (stereo not drawn),-0.9,1.3
CCCN[C@H]1CS(=O)(=O)C[C@@H]1S(=O)(=O)c1cccs1,-1.7,-6.2
CCn1cc2nc(SCc3ccccc3C)n(Cc3ccccc3)c(=O)c2n1,.,-0.25
CCCc1c(C(=O)O)nnn1-c1nonc1N,1.9,2.3
Cc1cccc(Nc2c(-c3ccc(Cl)cc3)c(=O)c2=O)n1,.,-3.3
CC(=O)N1CCC2(CC1)OC(=O)C(C)=C2C(=O)Nc1c(F)cc(F)cc1Br,.,1.2
CCOC(=O)c1c(C)sc(-c2c(-c3ccccc3)[nH]c3c2c(=O)n(C)c(=O)n3C)c1O,-2.8,-6.3
COc1cc(C2c3c(-c4cc(C)ccc4O)n[nH]c3C(=O)N2CCCOC(C)C)ccc1O (stereo not drawn),0.26,1.8
CSc1ccc(CN2CCN(Cc3ccc4c(c3)OCO4)CC2)cc1,-0.1,-0.54
COc1cc(Cl)ccc1NC(=O)Cn1cnc([N+](=O)[O-])n1,-1.1,0.02
O=C(Nc1c(C(=O)N2CCOCC2)oc2ccccc12)c1ccc2c(c1)OCO2,.,-0.21
CCOC(=O)CSc1nnnn1-c1ccccc1,-2.9,.

# (continued)
SMILES,CDC25B-CDK2 inh,TAR Tat displ
CCc1ccc(CN(C(=O)c2cc(=O)c3cc(Cl)ccc3o2)C2CCS(=O)(=O)C2)cc1 (stereo not drawn),-1.5,-0.32
Cc1cc(C)n(-c2nc(C)c(C(=O)Nc3ccc(Br)cc3)s2)n1,-1.8,0.36
Cc1cccc(CSc2ncc(-c3ccccc3)n2C)c1,.,1.8
CCc1nc(SC)ncc1C(=O)NCCC1=CCCCC1,.,-0.45
Cc1ccccc1-c1nnc2n1N=C(c1ccc(Br)cc1)CS2,.,0.86
Cc1ccc(-c2noc(CSc3nnc(-c4ccncc4)n3-c3ccc(C)cc3)n2)cc1,-1.9,0.93
Oc1ccc(-c2nc3ccccc3[nH]2)cc1,-0.67,-0.69
CN(C(=O)C1c2ccccc2C(=O)N(C)C1c1cccs1)c1ccc(Cl)cc1 (stereo not drawn),-1.8,-0.51
CCN(c1cccc(C)c1)c1c(-c2ccc(C)c(C)c2)c(=O)c1=O,.,1.2
CCn1c(Cn2cccn2)nc2cc(NC(=O)c3cccs3)ccc21,-1.2,0.36
CC(C(=O)NCc1ccco1)n1cc(C(=O)c2ccco2)c2ccccc21 (stereo not drawn),1.1,0.97
CCCCNC(=O)c1cc(S(=O)(=O)N2CCCCC2)oc1C,0.25,.
C=CCSc1ncc(Cl)c(C(=O)Nc2sc3c(c2C(=O)OC)CCC3)n1,-1.7,-0.34
CCOC(=O)c1ccc2c(c1)[C@@H]1C=CC[C@@H]1[C@H](c1cccc(Cl)c1)N2,0.73,.
COc1cc(CN(C2=NS(=O)(=O)c3ccccc32)c2ccc(C)cc2)ccc1O,0,.
CCOC(=O)c1c(C)oc(-c2ccc(Cl)cc2)c1S(=O)(=O)NCc1ccccc1,0.75,.
COc1ccc(-c2nc(SCC(=O)Oc3c(C)cccc3C)n3[nH]c(=O)cc3n2)cc1,.,0.77
CC1CCN(Cc2cccn2-c2nnc(N3CCN(Cc4ccccc4)CC3)s2)CC1,.,3
Cc1c(C(=O)N(C)c2cccc(Cl)c2)sc2nc3n(c(=O)c12)CCCCC3,.,0.9
CCNCc1ccc2c(c1)n(C)c(=O)n2C,0.07,-0.2
CN1C(=O)NC(c2ccc(C(F)(F)F)cc2)C2=C1CC(C)(C)CC2=O (stereo not drawn),1.9,.
CCOC(=O)C1CCCN(S(=O)(=O)c2ccc3c(c2)CC(C)N3C(=O)C2CC2)C1 (stereo not drawn),.,0.22
O=C(Oc1ccccc1)Oc1ccc2c(c1)oc(=O)c1ccccc12,-2.5,1.2
CCNc1nc(NCC)nc(Nc2nc(C)c(C(=O)OCC)s2)n1,-1.1,-0.46
Cc1ccc(Oc2nc3ccccc3n3cnnc23)cc1,-0.72,.

# Additional entries follow:
SMILES,CDC25B-CDK2 inh,TAR Tat displ
CCOc1ccc(S(=O)(=O)N2CCCC2c2ccnn2CC)cc1 (stereo not drawn),-1.5,1.2
Cc1ccc(-c2noc(-c3cccn4c(=O)c5ccccc5nc34)n2)cc1,-0.72,-4.7
O=C(CCSc1nc2ccccc2o1)Nc1ccccc1Br,-0.79,.
CC(C)c1ccc(NS(=O)(=O)c2cc(Br)cc3c2N(C(=O)C2CC2)CC3)cc1,0.04,.
CC1=C(C)CC2C(=O)N(C(Cc3ccccc3)C(=O)O)C(=O)C2C1 (stereo not drawn),-1.6,.
CCCc1nc2nc(C)cc(Nc3ccccc3Cl)n2n1,0.46,0.43
COc1ccc(CNc2ncnc3scc(-c4ccc(OC)cc4)c23)cc1,.,1.6
O=C(CSCc1cnn(-c2ccccc2)c1-n1cccc1)NC1CC1,-1.1,-0.12
Cc1ccccc1OCc1nn2cnnc2s1,0.23,0.64
O=c1c2c3c(sc2nnn1CCCOc1ccccc1)CCCC3,1,1.5
Cc1cc2oc(C(=O)Nc3nonc3C)c(C)c2cc1C,-1.9,-1.1
CCCn1cc(NC(=O)C2=CC(c3ccc(C)cc3)=NS(=O)(=O)N2C)cn1,-1.4,1.9
COc1ccc(C(=O)CN2C3=NCCN3c3ccccc32)cc1,-1.6,0.98
Cc1ccc(NS(=O)(=O)c2cc(-c3cnc(C4CC4)o3)ccc2C)cc1F,.,1.6
CCOC(=O)N1CCN(C(=O)CSc2nnc(COc3ccc(Cl)cc3)o2)CC1,-1.1,2.3
Cc1ccc(S(=O)(=O)c2nc(S(C)(=O)=O)sc2N2CCC(C)CC2)cc1,-0.15,1.1
CCS(=O)(=O)c1ncc(Cl)c(C(=O)Nc2nc3ccc(OC)cc3s2)n1,3.9,-0.56
CCC(C)OC(=O)Cn1nnc2sc3c(c2c1=O)CCCC3 (stereo not drawn),0.78,0.14
O=S(=O)(Nc1ccc(F)c(Cl)c1)c1cc(Br)c(Br)s1,1.6,.
CC(NC(=O)c1ccc2c(c1)sc1nc(-c3ccc(F)cc3)cn12)c1ccc2c(c1)OCCO2 (stereo not drawn),.,2.4
CC1(C)Cc2nc3oc4c(N(CCO)Cc5ccccc5)ncnc4c3cc2CO1,.,1.1
COC(=O)C[C@H]1C(C)(C)C(=O)[C@@H]2CC3=C(CC[C@]4(C)C3=CC(=O)O[C@H]4c3ccoc3)C1(C)C2=O,.,3.5
Cc1ccc(S(=O)(=O)Nc2ccccc2SCCS(=O)(=O)c2ccc(Cl)cc2)cc1,-0.55,.
O=C(Nc1nc2ccc(Cl)cc2s1)c1csnn1,-1,0.54
CC[Si](C)(C)Cn1nc(C)cc1C,0.58,.

# 7 records drawn at random from those above, as already listed:
SMILES,CDC25B-CDK2 inh,TAR Tat displ
CC1(O)Cc2[nH][nH]c(=O)c2C(c2cccnc2)C1C(=O)OCc1ccccc1 (stereo not drawn),-2.3,2.4
O=c1c2c3c(sc2nnn1CCCOc1ccccc1)CCCC3,1,1.5
COc1ccc(-c2nc(SCC(=O)Oc3c(C)cccc3C)n3[nH]c(=O)cc3n2)cc1,.,0.77
COc1cc(C2c3c(-c4cc(C)ccc4O)n[nH]c3C(=O)N2CCCOC(C)C)ccc1O (stereo not drawn),0.26,1.8
CCc1nc(SC)ncc1C(=O)NCCC1=CCCCC1,.,-0.45
CC(NC(=O)c1ccc2c(c1)sc1nc(-c3ccc(F)cc3)cn12)c1ccc2c(c1)OCCO2 (stereo not drawn),.,2.4
CCCc1c(C(=O)O)nnn1-c1nonc1N,1.9,2.3

# (continued)
SMILES,CDC25B-CDK2 inh,TAR Tat displ
COc1cccc(C2Nc3c(C)cc(C)cc3-c3cc(C)nn32)c1OC (stereo not drawn),0.07,1.1
COc1ccc(-c2cc(NCCc3ccc(OC)c(OC)c3)nc(C)n2)cc1,-0.42,0.53
Cc1ccc(Cc2nc3nc4c(c(=O)n3[nH]2)CCCC4)cc1,.,2.1
CCCN(CCC)C(=O)CN(C)S(=O)(=O)c1ccc2c(c1)CCC(=O)N2,-1.1,.
O=C(NCCNCCO)c1c(O)c2cccc3c2n(c1=O)CC3,.,0.72
Cc1nc(-c2csc(S(=O)(=O)Nc3ccccc3C)c2)no1,.,-0.17
O=C(O)CCc1ccc(-c2ccc(F)cc2)n1CCC(=O)O,-1.1,.
CCOC(=O)C1=C(C)NC2=C(C(=O)CC(c3ccc(Cl)cc3)C2)C1c1ccc(O)c(OCC)c1 (stereo not drawn),-2.6,1.5
COc1ccc(Cl)cc1NC(=O)N1CCN(CCc2ccccc2)CC1,-1.6,.
CCCNC(=O)CCc1nnc2ccc(N3CCN(C)CC3)nn12,.,0.42
Cc1cc(S(=O)(=O)Nc2ccc(N3CCCS3(=O)=O)cc2)ccc1F,.,0.14
Cc1cc(N2CCC(N)CC2)n2ncnc2n1,-1.1,-1.5
c1ccc(-c2nnc(CN3CCCC3)o2)cc1,-1.5,-0.1
O=C(c1ccccc1)c1cn(Cc2ccccc2F)c2ccc(F)cc2c1=O,-1.4,2.3
COCCNc1nc(NC(C)C)c2cnn(C)c2n1,.,2
CC(=O)c1ccccc1OC(=O)c1ccc([N+](=O)[O-])o1,-1.1,.
O=C1CC(c2ccccc2)CC(=O)N1c1ccccc1,-0.6,.
O=C(NCc1ccco1)N1CCC2(CC1)Nc1ccccc1-n1cccc12,.,0.19
Cc1cc(NC(=O)Cn2c(=O)n(Cc3ccco3)c(=O)c3ccccc32)n[nH]1,-1.1,.
COc1ccc(S(=O)(=O)Nc2cccnc2)c(C)c1C,0.6,-1.4
COc1cc(NS(=O)(=O)c2ccc3c(c2)CCN3S(C)(=O)=O)cc(OC)c1,.,1.6
COc1ccc(CN2C(=O)c3oc4ccc(F)cc4c(=O)c3C2c2ccc(O)cc2)cc1 (stereo not drawn),3.1,0.24
COc1cccc(C(=O)/C=C2\NC(=O)CS2)c1,-1.6,.
CCOC(=O)C(C)Oc1ccc2c(C)c(Cc3ccccc3)c(=O)oc2c1 (stereo not drawn),0.62,.
c1cncc(-c2nnc(-c3cccnc3)nn2)c1,-0.18,1.1

# (listing goes on)
SMILES,CDC25B-CDK2 inh,TAR Tat displ
Cn1ncc2c(NCc3ccc(Cl)cc3)ncnc21,.,2.5
COc1ccc(N2C(=O)CSC2c2cccc(C(F)(F)F)c2)cc1 (stereo not drawn),-0.69,.
Fc1ccc(CN2CCc3c(Br)cccc3C2)cc1,-0.84,0.92
O=c1cc(CN2CCN(Cc3cccc4ccccc34)CC2)nc2sccn12,.,0.17
O=C(Nc1ccccc1)c1c(O)c2ccccc2[nH]c1=O,.,0.71
Cn1cnc(S(=O)(=O)NCc2ccc3c(c2)OCO3)c1,-1.7,0.54
CCn1ccc2cc(S(=O)(=O)N3CCCN(C(=O)NC4CCCC4)CC3)ccc21,.,1.5
COc1ccc(C2OCC(C)(C)n3c(-c4ccc(Cl)cc4)c4c(=O)n(C)c(=O)n(C)c4c32)cc1O (stereo not drawn),-0.46,1.2
COc1ccc(C2CC(=O)C3=C(C2)NC(C)=C(C#N)C3c2ccc(N(C)C)cc2)cc1 (stereo not drawn),-1.8,0.12
Cc1ccc(-c2csc3c2ncn2c(=O)n(CC(=O)Nc4ccc(C)c(Cl)c4)nc32)cc1,.,1
c1ccc(-c2noc(NC3CCCCC3)n2)cc1,.,-0.33
COC(=O)c1sc(-c2ccc(C(C)(C)C)cc2)cc1NC(C)=O,-1.5,.
NC[C@@H]1CC[C@@H](N)[C@@H](O[C@H]2[C@H](O)[C@@H](O[C@H]3O[C@H](CO)[C@@H](O)[C@H](N)[C@H]3O)[C@H](N)C[C@@H]2N)O1,.,0.14
CC1(C(=O)NC2CCCC2)CCC(=O)N1C1CC1 (stereo not drawn),0.38,-0.48
Cc1c(C(=O)N2CCCCCC2)sc2ncn(CC(=O)N3CC(C)CC(C)C3)c(=O)c12 (stereo not drawn),-1.6,.
Cc1ccc(S(=O)(=O)N2CCC(C)CC2)cc1,-1.2,1.4
N#C/C(=C/c1ccccc1N1CCN(Cc2ccccc2)CC1)S(=O)(=O)c1ccccc1,-1.3,.

# Shown with tabs: part of the list above
smiles	CDC25B-CDK2 inh	TAR Tat displ
COC(=O)c1sc(-c2ccc(C(C)(C)C)cc2)cc1NC(C)=O	-1.5	.
N#C/C(=C/c1ccccc1N1CCN(Cc2ccccc2)CC1)S(=O)(=O)c1ccccc1	-1.3	.
Cc1ccc(-c2csc3c2ncn2c(=O)n(CC(=O)Nc4ccc(C)c(Cl)c4)nc32)cc1	.	1
